# Sa helicase inh = inhibitors of S. aureus replicative helicase, primary screen, biochemical, fluorescence unwinding readout; AID 485395, 2010; replicative DNA helicase (DnaC/DnaB), Staphylococcus aureus; inhibition, %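 (tested at about 80 µM)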; purified S. aureus helicase, fluorescence unwinding assay; about half of the hits fall short of the stated cut; hit rate 0.05% among 120,000;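 active = both duplicates at 50% or more, or one of them with a favoured structure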;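 also: 0% = mean of negative control wells and 100% = mean of positive control wells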
# MgrA-DNA mod = S. aureus MgrA activity modulators, primary screen, biochemical, S. aureus Newman, fluorescence polarization | MgrA-DNA binding | AID 602314, 2012 | inhibition, %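 (about 10 µg/mL by stock and volumes)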 | hit rate 0.13% among 84,000;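 active = above 50% in either of two replicates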;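 also: 0% = protein plus DNA without compound and 100% = DNA alone without protein; higher means less MgrA bound to DNA so lower polarization; one replicate is shown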
# * = called active by the depositor; x = no result given. These rows are one share of the data; the hit share may differ from the screen's.
SMILES,Sa helicase inh,MgrA-DNA mod
CC(=O)c1ccc(C(F)(F)F)cc1[N+](=O)[O-],x,-0.4
Cc1nc(N)sc1C(C)(C)C,2.0,-0.1
O=C(O)/C(=C/c1ccsc1)c1cc(F)cc(F)c1,x,-1.1
O=S(=O)(c1ccccc1)N1N=C(c2cccs2)CC1c1ccccc1O (stereo not drawn),-2.0,x
COc1ccccc1N1CCN(C(=O)C2CCCCC2)CC1,x,-3.0
O=C(Nc1ccc(Cl)cc1)/C(=C\c1cccs1)c1ccsc1,x,-1.8
CCc1ccc(Sc2c(N)c3c(c(N)c2Sc2ccc(CC)cc2)C(=O)c2ccccc2C3=O)cc1,x,4.7
COc1ccc2c(=S)c(-c3cc4ccccc4o3)c(C)oc2c1,6.0,3.5
O=C(CCNc1ccc(Br)cc1)c1ccc2c(c1)OCO2,-18.0,-2.9
CCCNC(=O)c1oc2ccc3c(c2c1C)C=CC(C)(C)O3,11.0,x
O=C(O)CSC(SCC(=O)O)c1ccc2c(c1)OCO2,x,5.7
O=C(COC(=O)C(O)c1ccccc1)NC12CC3CC(CC(C3)C1)C2 (stereo not drawn),-9.0,x
COC(=O)[C@H](C)NC(=O)C(c1ccccc1)c1ccccc1,-5.0,x
CN1c2ccccc2N(C)C1c1ccccc1,9.0,-0.3
CCn1c(C2CC(=O)N(Cc3ccccc3)C2)nc2ccccc21 (stereo not drawn),-2.0,x
COc1ccc(-c2nnc3c4ccccc4c(C)nn23)cc1S(=O)(=O)N(C)CCO,11.0,x
Brc1ccc(-c2cc(-c3ccccc3)no2)cc1,7.0,-0.6
CC1NCc2c(sc3c2CCCC3)-n2cccc21 (stereo not drawn),16.0,x
CC(OC(=O)c1ccc2c(=O)n3c(nc2c1)CCC3)C(N)=O (stereo not drawn),-8.0,x
COc1nc(Nc2ccc(Cl)cc2)nc(N2CCCCC2)n1,x,-1.2
COc1cc(C=C2C(=O)NC(=O)NC2=O)cc(Cl)c1OCC(=O)O,0.0,17.2
CCCCS(=O)c1nc(-c2ccc(C)cc2)cc(-c2ccccc2)c1C#N (stereo not drawn),9.0,2.2
CCOC1CS(=O)(=O)CC1OCC (stereo not drawn),-7.0,1.9
Nc1nc(CSc2n[nH]c(-c3ccccc3)n2)nc(Nc2ccccc2)n1,13.0,0.7
CC1CCCC(NC(=O)COC(=O)Cc2ccsc2)C1C (stereo not drawn),-1.0,-1.4
# Next part.
SMILES,Sa helicase inh,MgrA-DNA mod
Cc1noc2ncc(C(=O)c3ccccc3O)cc12,-1.0,x
Cc1noc(C)c1COc1cccc(C(=O)Nc2ccccc2)c1,-6.0,x
CC(Nc1ccc2c(c1)OCCO2)C(=O)N1c2ccccc2CC1C (stereo not drawn),-9.0,x
CC1(C)CC(NCC(=O)Nc2ccc(C(=O)O)cc2)CC(C)(C)N1,-6.0,x
CN(C)Cc1c(O)ccc2c(-c3ccccc3)cc(=O)oc12,13.0,x
CCOc1cccc2c1OC1(C)C(C(=O)Nc3ccc(OC)cc3)C2NC(=S)N1CCOC (stereo not drawn),9.0,1.0
COC(=O)c1ccc(Oc2ncc(C(F)(F)F)cc2Cl)cc1,x,-1.3
CSc1cccc(NC(=O)CCS(=O)(=O)c2ccc3c(c2)CCN3C(C)=O)c1,9.0,0.5
O=C(c1ccccc1NS(=O)(=O)c1ccccc1)N1CCCC1,11.0,1.6
COc1ccc(NC(=O)CN2C(=O)c3ccccc3C2=O)cc1,2.0,0.8
O=C(Oc1ccccc1N1CCOCC1)c1cccnc1Oc1ccccc1,x,-0.9
O=Nc1sc2ccc3ccccc3c2c1O,22.0,x
CC(C)CN(CC(=O)N1c2ccccc2CC1C)CC(C)C (stereo not drawn),12.0,x
O=C(CN1CCN(Cc2ccccc2)CC1)N1N=CCC1c1ccccc1 (stereo not drawn),7.0,-0.2
CC1(C)CC(=O)C2=C(C1)Nc1ccccc1N(C(=O)Nc1ccc(Cl)c(Cl)c1)C2c1ccco1 (stereo not drawn),-20.0,x
CC(C)CN1CN(Cc2ccco2)CNC1=S,-6.0,-0.7
CN1CCN(C(=O)c2cnn(-c3ccccc3)c2NC(=O)c2ccccc2)CC1,-2.0,x
CN(C)c1ccc(/C=N/N2C(=O)CNC2=O)cc1,11.0,-1.2
COc1cc(C)c(S(N)(=O)=O)c(S(N)(=O)=O)c1,-1.0,x
COc1ccc(NC(=S)NC(C)(C)C)cc1,0.0,-1.5
CN(Cc1ccccc1)C(=O)COC(=O)c1ccc(O)cc1,-11.0,x
COc1ccc2c(c1)Cc1sc(NC(=O)c3ccccc3)nc1-2,-14.0,x
CC(C(=O)Nc1ccc(C(N)=O)cc1)N(C)Cc1cccs1 (stereo not drawn),17.0,x
CC1=CC(C)C2C(=O)N(CCCN(C)C)C(=O)C2C1 (stereo not drawn),-1.0,x
Cc1cccc(OCc2nc(C#N)c(NCCc3ccccc3)o2)c1,14.0,-2.7

# Record cards (already shown):
# Cc1cccc(OCc2nc(C#N)c(NCCc3ccccc3)o2)c1 across the screens: Sa helicase inh: 14.0; MgrA-DNA mod: -2.7
# CC1(C)CC(=O)C2=C(C1)Nc1ccccc1N(C(=O)Nc1ccc(Cl)c(Cl)c1)C2c1ccco1 (stereo not drawn) across the screens: Sa helicase inh: -20.0; MgrA-DNA mod: x

# Given as labelled records: 4 of the compounds above.
CC1=CC(C)C2C(=O)N(CCCN(C)C)C(=O)C2C1 (stereo not drawn)
  Sa helicase inh = -1.0; MgrA-DNA mod = x
O=C(c1ccccc1NS(=O)(=O)c1ccccc1)N1CCCC1
  Sa helicase inh = 11.0; MgrA-DNA mod = 1.6
COc1cc(C)c(S(N)(=O)=O)c(S(N)(=O)=O)c1
  Sa helicase inh = -1.0; MgrA-DNA mod = x
CC(C)CN1CN(Cc2ccco2)CNC1=S
  Sa helicase inh = -6.0; MgrA-DNA mod = -0.7

# Further results:
SMILES,Sa helicase inh,MgrA-DNA mod
c1coc(-c2nnc(-c3ccco3)nn2)c1,5.0,x
O=C1/C(=C\c2ccccn2)SC(=S)N1CCc1ccc(Cl)cc1,x,-2.5
COc1ccc(N(CN2C(=O)c3ccccc3C2=O)C(=O)c2ccccc2)cc1,6.0,1.0
CCCN1COc2ccc3c(-c4ccccc4)cc(=O)oc3c2C1,15.0,x
COCCNC(=O)c1cc[n+]([O-])cc1,11.0,x
CSc1sc(C(=O)/C=C/N(C)C)c2c1C(=O)CC(C)(C)C2,x,2.4
Cc1ccn2cc(CCNC(=O)C3CCCCC3)nc2c1,2.0,-3.1
CCNS(=O)(=O)c1cccc(S(=O)(=O)c2ccc(Cl)cc2)c1,-5.0,2.1
NS(=O)(=O)c1ccc(-n2nncc2-c2ccccc2)cc1,-5.0,x
O=C(CCSc1ccc(Br)cc1)Nc1ccc(F)cc1,-20.0,-2.4
CC(=O)c1ccc(N2C(=O)C3C4C=CC(CC4)C3C2=O)cc1 (stereo not drawn),x,-0.5
C=CCC(c1ccncc1)/[N+]([O-])=C\c1ccccc1 (stereo not drawn),11.0,3.2
CN(C)/C=C/C(=O)c1ccc2c(c1)CCO2,x,3.5
O=C(Nc1ccccc1I)c1ccc(Br)o1,-23.0,-1.1
CCn1c(=O)cc(OCC(=O)NCCCN2CCCC2=O)c2ccccc21,8.0,-0.5
Cc1ccnc(Nc2nc3ccccc3o2)n1,-4.0,-2.8
CN(CC(=O)Nc1ccccc1SCC#N)c1ccccc1,-74.0,x
CC(C)(C)OC(=O)N1CCc2[nH]ncc2C1,2.0,x
Cc1cc(C(=O)NC(C)(C)C)on1,8.0,-1.6
CC1(C)CC(=O)C2=C(C1)Nc1ccccc1NC2c1ccc2c(c1)OCO2 (stereo not drawn),-29.0,x
Cc1c(NC(=O)CCCN2C(=O)/C(=C/c3ccccc3)SC2=S)c(=O)n(-c2ccccc2)n1C,x,-1.0
CCOC(=O)c1cnc2cc(-c3ccc(I)cc3)[nH]n2c1=O,8.0,0.0
O=C1CC(N2CCN(c3ccccn3)CC2)C(=O)N1c1ccc2c(c1)OCO2 (stereo not drawn),11.0,2.8
O=C1CCc2cc3c(cc2O1)OC(=O)CC3,0.0,x
O=C(Nc1ccc(-c2nc3ccccc3o2)cc1)c1ccccc1Cl,-17.0,-0.6
# Next part.
SMILES,Sa helicase inh,MgrA-DNA mod
O=C(Nc1ccc(Cc2ccncc2)cc1)C1CC1,-11.0,-1.4
Cc1ccc(NCN2C(=O)C3CC=CCC3C2=O)cc1Cl (stereo not drawn),-34.0,x
O=S1(=O)CCN(CC2CCCC2)CC1,x,0.1
N#CCSc1nnc(SCC#N)s1,x,5.4
Nc1c(N)c2ccccc2oc1=O,-10.0,2.7
COC(=O)c1ccc(CSc2nnc(SC(C)C(=O)c3ccc(F)cc3)s2)o1 (stereo not drawn),7.0,x
Cc1onc(-c2c(Cl)cccc2Cl)c1NC(=O)O/N=C/c1ccc(F)cc1,x,-0.3
CCCS(=O)(=O)N1CCC2(CC1)CC(=O)c1ccccc1O2,-6.0,x
NNC(=O)c1cccnc1Oc1ccccc1,x,-1.6
CC(=O)CNC(=O)Cc1ccccc1,x,-2.8
Oc1c(C(c2ccccn2)N2CCN(c3ccc(F)cc3)CC2)cc(Cl)c2cccnc12 (stereo not drawn),-8.0,x
COC(CN(C)C(=O)c1cc2c(Cl)nc3ccc(C)cc3c2s1)OC,-7.0,-0.5
O=C(Nc1ccc(OC(=O)c2sc3ccccc3c2Cl)cc1)c1sc2ccccc2c1Cl,x,0.5
Cc1nnc2c(N3CC=C(c4ccccc4)CC3)nc3ccccc3n12,3.0,10.1
Cc1cc(C)cc(-n2c(SCc3cn4ccsc4n3)nc3ccccc3c2=O)c1,-7.0,x
O=C(CCc1nnc2n(Cc3ccccc3)c(=O)c3ccccc3n12)NCc1ccccn1,9.0,x
Cn1c(SCC(=O)N2CC(=O)Nc3ccccc32)nnc1C(F)(F)F,9.0,x
CC(=O)NC(Cc1c[nH]c2ccccc12)C(=O)Nc1cccc(C#N)c1 (stereo not drawn),-3.0,x
COc1ccc(CN(C)C(=O)Cc2c[nH]c3ccccc23)c(OC)c1OC,5.0,x
CC1(C)Cc2cccc(OCC(=O)Nc3cccnc3)c2O1,-7.0,x
COc1cccc(N2C(=O)Nc3ccccc3C2(O)C(=O)NC2CCCCCCC2)c1 (stereo not drawn),13.0,x
Cc1ccc(C(=O)c2[nH]c(=O)c3ccccc3c2O)c(C)c1,1.0,x
O=c1cc(C(F)(F)F)c2ccc(O)cc2o1,x,5.8
CCCSc1nnc(-c2ccc(Cl)cc2)n1Cc1ccco1,-2.0,x
O=C(CN1C(=O)c2ccccc2S1(=O)=O)N1CCC(Cc2ccccc2)CC1,5.0,0.0
# More structures
SMILES,Sa helicase inh,MgrA-DNA mod
CCOC(=O)c1c(NC(=O)c2cc3cc(OC)ccc3oc2=O)sc2c1CCCC2,x,-0.9
CCC(C)NC(=O)c1nn2c(c1Cl)NC(c1ccc(OC)cc1)CC2C(F)(F)F (stereo not drawn),4.0,0.9
CCOC(=O)c1cnc(SCC(=O)Nn2c(C)nc3sc(C)cc3c2=O)nc1N,-20.0,x
O=C(Nc1ccc(S(=O)(=O)N2CCOCC2)cc1)c1cc2ccccc2o1,14.0,-5.1
CC(=O)Nc1ccc(C2Nc3ccc(C)cc3O2)cc1 (stereo not drawn),x,0.6
CC(C)NC(=S)N1CCN(c2ccc3nnc(-c4ccc(F)cc4)n3n2)CC1,8.0,-2.4
O=C(NCc1cccs1)c1nc2ncccn2n1,8.0,-15.1
O=C1Nc2ccccc2C12CC(c1ccc(F)cc1)=NC(=S)N2c1ccc(F)cc1 (stereo not drawn),15.0,-1.9
Cc1ccccc1CNC(=O)c1cc2cccc3c2n1CCO3,9.0,x
Cc1sc2nc(COC(=O)c3ccc(S(=O)(=O)NCc4ccco4)cc3)[nH]c(=O)c2c1C,-15.0,x
CC(NCc1ccc(Cl)cc1)=C(C#N)C#N,-14.0,x
Cc1c(S(=O)(=O)c2ccc(Cl)cc2)csc1S(=O)(=O)N1CCCCC1,10.0,x

# Some values from the entries so far:
# CN(Cc1ccccc1)C(=O)COC(=O)c1ccc(O)cc1 – Sa helicase inh: -11.0
# O=C(CCc1nnc2n(Cc3ccccc3)c(=O)c3ccccc3n12)NCc1ccccn1 – Sa helicase inh: 9.0
# CN(C)/C=C/C(=O)c1ccc2c(c1)CCO2 – MgrA-DNA mod: 3.5
# CCCS(=O)(=O)N1CCC2(CC1)CC(=O)c1ccccc1O2 – Sa helicase inh: -6.0
